Calb biofilm kill: mixtures killing C. albicans biofilm; hit rate 0.02% among 120,000; C. albicans biofilm persisters + clotrimazole, fluorescence viability; primary screen in compound mixtures of four per well; inhibition, % at 7.6 µM;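 active = inhibition above 30.3% in the primary screen of four-compound pools, then above 30% when the compound was retested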;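 also: compounds exposed to preformed 24 h biofilms for 48 h; the number belongs to the whole pool; some results filed as inactive read as strong as hits; inactives centre near 12; 0% = biofilm with clotrimazole alone and 100% = kill control; retested singly at about 60 µM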
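Incubation: 24 h biofilm formation, then 48 h compound exposure, 37 °C | Material: C. albicans biofilms | Buffer or medium: RPMI/MOPS medium, pH 7.0 | Measured by: 2-h Alamar Blue fluorescence, 535/590 nm excitation/emission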
An asterisk follows results filed as active. This is a subset (hit frequency here may not be typical).

SMILES	Calb biofilm kill
CC(C)(C)C(=O)OCc1nc(-c2ccc(Cl)cc2)cs1	17
CN1CCN(C(=O)C2=C[C@H](c3ccc4c(c3)OCO4)C[C@H](OCc3ccc(CO)cc3)O2)CC1	6
COc1ccc(CSCCc2n[nH]c(=S)n2-c2ccccc2)cc1C	16
O=C(CCn1c(=O)oc2ccccc21)NC1=NCCS1	19
CC(C)C(=O)NC(=S)Nc1ccccc1C(=O)NC1CCCCC1	16
CCCCn1c(SCC(=O)N(CC)C2CCS(=O)(=O)C2)nc2cc(S(N)(=O)=O)ccc21 (stereo unspecified)	21
CCCN(CCC)CCOc1cc(C)ccc1C(C)C	5
Cc1nc2ccccc2nc(=O)c1NNc1ccccc1	14
O=C1c2cc3ccccc3c(-c3ccccc3)c2C(=O)N1c1ccccn1	11
Oc1csc(Cc2nc(-c3ccccc3F)cs2)n1	3
N/C(=N\OS(=O)(=O)c1ccc2ccccc2c1)c1cccnc1	15
COc1ccc(CCNc2ccc(C(CC(N)=O)NC(=O)Cc3cccc4ccccc34)cc2[N+](=O)[O-])cc1 (stereo unspecified)	14
COc1ccc(NC(=O)/C=C/c2cccc(F)c2)cn1	7
O=C(Cc1ccc(Cl)c(Cl)c1)Nc1cccc2ncccc12	5
COCCN(C(=O)CCl)C(C(=O)NC1CCCCC1)c1ccccc1C (stereo unspecified)	12
CCn1cc([N+](=O)[O-])c(C(=O)N2N=C(c3ccccc3)CC2c2ccc([N+](=O)[O-])cc2)n1 (stereo unspecified)	8
CNC(=S)N(C)[C@H]1c2c(ccc3ccccc23)OC[C@H]1CO	4
Cc1ccc(CSCC(=O)NN=C2CCN(C)CC2)cc1	7
O=C(CCc1ccccc1)NCCc1nc2ccccc2[nH]1	11
S=c1[nH]nc(CCc2nc3ccccc3[nH]2)n1-c1ccccc1	21
CC(C)C[C@H](NC(=O)c1nc[nH]c1C(=O)NCc1ccccc1)C(=O)OC(C)(C)C	21
O=C(Nc1ccccc1C(F)(F)F)c1c(F)cccc1Cl	18
N#CC(C#N)=Cc1cccn1-c1ccc(S(N)(=O)=O)cc1	8
COc1ccc(C(=O)NNC(=O)CSc2nnc(C)n2CC2CCCO2)cc1 (stereo unspecified)	12
CCN1CCc2nc3ccccc3c(C(=O)Nc3ccc(NC(C)=O)cc3)c2C1	6
CCC(C)c1ccc(NC(=S)NCc2cccnc2)cc1 (stereo unspecified)	12
CCN(Cc1nc(-c2cccc(Cl)c2)no1)CC1CCCO1 (stereo unspecified)	6
O=C1NCCC/C1=N/Nc1ccc(F)cc1	7
COc1ccc(CCc2nnc(CCC(=O)N(C)Cc3ccnc4ccccc34)o2)cc1	-6
COc1ccc(CN2CCN(C(=O)C3CCC(CNS(=O)(=O)c4ccc(C)cc4)CC3)CC2)c(OC)c1OC (stereo unspecified)	16
COc1ccc(N2CCN(C(=O)C3(C)CC3(Cl)Cl)CC2)cc1 (stereo unspecified)	15
O=c1nc2n(c3ncccc13)CCCCC2	12
CC1CCN(CCOCCOc2ccccc2Br)CC1	12
CC1(C)CC(=O)C/C(=N/NC(=O)C2CCN(S(=O)(=O)c3cccs3)CC2)C1	10
CC(=O)c1cccc(N2C(=O)Nc3ccccc3N2O)c1	7
CCOC(=O)C1CCN(C(=O)Nc2ccc(OCc3ccccc3)cc2)CC1	5
NNC(=O)CSCc1ccc(Cl)cc1Cl	12
NS(=O)(=O)c1cccc(NC(=O)CSc2nc3ccccc3c(=O)n2CCCN2CCOCC2)c1	17
CC(C)NC(=O)CC(=O)N/N=C/c1c(F)cccc1Cl	3
Cc1oc(-c2cccc(F)c2)nc1CN1CCCCC1CCc1ccccn1 (stereo unspecified)	3
CC(C)C[C@H](N)c1cn([C@@H](CCCCN)C(=O)N2CCNCC2)nn1	19
COCCOC(=O)c1[nH]c2c(c1C)C(=O)CC(c1cccs1)C2 (stereo unspecified)	32
Cc1ccc(OCC(O)CN2CC3(C)CC2CC(C)(C)C3)cc1 (stereo unspecified)	15
Cn1nc(C(F)(F)F)cc1-c1ccc(/C=C(\C#N)C(=O)c2cccc(C(F)(F)F)c2)s1	20
O=C(CSc1ccc2c(c1)OCCO2)Nc1ccc(N2CCOCC2)cc1	11
Cc1ccc(CNC(=O)CNC(=S)N(Cc2ccccc2)Cc2cccnc2)cc1	7
O=C(CSc1ccc(F)cc1)NCCSc1ccccc1	20
CC(C)(C)C(=O)c1cn(CC(=O)O)c2ccccc12	15
CC(=O)N1C(=O)/C(=C2\SC(=S)N(NS(=O)(=O)c3ccc(C)cc3)C2=O)c2ccccc21	7
COCCOc1cc(NC(=O)c2cccc(OC)c2)c(Cl)cc1Cl	27

Copied from the results shown for reference:
SMILES	Calb biofilm kill
COc1ccc(N2CCN(C(=O)C3(C)CC3(Cl)Cl)CC2)cc1 (stereo unspecified)	15
O=c1nc2n(c3ncccc13)CCCCC2	12
CC1CCN(CCOCCOc2ccccc2Br)CC1	12
CC1(C)CC(=O)C/C(=N/NC(=O)C2CCN(S(=O)(=O)c3cccs3)CC2)C1	10
CC(=O)c1cccc(N2C(=O)Nc3ccccc3N2O)c1	7
CCOC(=O)C1CCN(C(=O)Nc2ccc(OCc3ccccc3)cc2)CC1	5
NNC(=O)CSCc1ccc(Cl)cc1Cl	12
NS(=O)(=O)c1cccc(NC(=O)CSc2nc3ccccc3c(=O)n2CCCN2CCOCC2)c1	17
CC(C)NC(=O)CC(=O)N/N=C/c1c(F)cccc1Cl	3
Cc1oc(-c2cccc(F)c2)nc1CN1CCCCC1CCc1ccccn1 (stereo unspecified)	3
CC(C)C[C@H](N)c1cn([C@@H](CCCCN)C(=O)N2CCNCC2)nn1	19
COCCOC(=O)c1[nH]c2c(c1C)C(=O)CC(c1cccs1)C2 (stereo unspecified)	32
Cc1ccc(OCC(O)CN2CC3(C)CC2CC(C)(C)C3)cc1 (stereo unspecified)	15
Cn1nc(C(F)(F)F)cc1-c1ccc(/C=C(\C#N)C(=O)c2cccc(C(F)(F)F)c2)s1	20
O=C(CSc1ccc2c(c1)OCCO2)Nc1ccc(N2CCOCC2)cc1	11
Cc1ccc(CNC(=O)CNC(=S)N(Cc2ccccc2)Cc2cccnc2)cc1	7
O=C(CSc1ccc(F)cc1)NCCSc1ccccc1	20

The results go on.
SMILES	Calb biofilm kill
Cn1ncc(Cl)c1C(=O)N1CCOCC1	10
CCC(=O)Nc1ccc(C(=O)NNC(=O)COc2cccc(C)c2)cc1	17
Cc1cc(NC(=O)CN2CCN(Cc3ccccc3)CC2)nc2c1c(=O)oc1ccccc12	9
CCc1nnc(NS(=O)(=O)c2ccc(NC(=O)COc3ccc(Cl)c(C)c3)cc2)s1	11
COc1ccc(-c2cn3ccc(C)cc3n2)cc1	9
CCOc1ccc(NC(=S)N2CCn3c(nc4ccccc43)C2)cc1	14
CCOc1ccc2nc(NC(=O)CN3CCOCC3)sc2c1	-2
CCOc1ccc(CN2CCCC(CNC(=O)c3ccc(F)cc3)C2)cc1CO (stereo unspecified)	7
Cc1cccc(N=Nc2c(O)[nH]c3ccc(F)cc23)c1	15
C/C(=N/NC(=O)CSc1nc2ccccc2s1)c1ccncc1	17
NNC(=O)CNC(=O)C12CC3CC(CC(C3)C1)C2	15
CC(=O)C1C(c2ccc(F)cc2)c2c(noc2C)CC1(C)O (stereo unspecified)	18
CN(C)/C=C/C(=O)c1cnc(-c2ccc(Cl)cc2)s1	-2
Clc1nc2c(ccc3ccccc32)[nH]1	24
COc1cc(/C=C/C(=O)Nc2nc3ccc(S(=O)(=O)NC(C)C)cc3s2)cc(OC)c1OC	16
CC(C)CNc1oc(-c2ccco2)nc1C#N	12
COc1ccccc1C1C(C(C)=O)=C(C)N=c2s/c(=C\c3cc(OC)c(OC)c(OC)c3)c(=O)n21 (stereo unspecified)	8
COCCNc1nc(-c2ccccc2)nc2c1oc1ccccc12	17
Cc1ccc2cn[nH]c2c1[N+](=O)[O-]	14
COc1cccc(C(=O)COC(=O)CCC(=O)NC2CCCCC2)c1	21
NC(=O)CSc1ccc(-c2ccc(F)cc2)nn1	14
CCN1CN(Cc2ccco2)CNC1=S	-11
O=C(O)Cc1sc(Nc2ccccc2)nc1-c1cccs1	16
COc1cccc(CNC(=O)CCC2CCCN(C(=O)c3cc(C)on3)C2)c1 (stereo unspecified)	22
O=C(CCn1cccc1)Nc1ccc(OC(F)(F)F)cc1	15
CN(Cc1ccon1)C(=O)CC1C(=O)NCCN1CC1CCCCC1 (stereo unspecified)	12
CCCC1S/C(=N/N=C/c2ccco2)NC1=O (stereo unspecified)	6
O=c1cc[nH]c2ccc([N+](=O)[O-])cc12	3
CCCN1CCC(=O)N([C@H](CSc2ccc(C)cc2)c2ccccc2)CC1	12
Cc1ccc(CSCCNC(=O)c2cccc([N+](=O)[O-])c2)cc1	10

Laid out differently: 2 of the compounds above.
NC(=O)CSc1ccc(-c2ccc(F)cc2)nn1
- Calb biofilm kill: 14

Cc1ccc(CSCCNC(=O)c2cccc([N+](=O)[O-])c2)cc1
- Calb biofilm kill: 10

Following part:
SMILES	Calb biofilm kill
Cc1cc(C(=O)OCC(=O)N2CC(=O)Nc3ccccc32)c(C)n1-c1ccccc1	14
Cc1noc(C)c1COc1cccc(C(=O)OC(C)C#N)c1 (stereo unspecified)	2
CCOC(=O)Cn1cc(C#N)c2ccccc21	-6
CC(=O)c1ccc(NC(=S)NCCCN2CCOCC2)cc1	6
COc1c(O)cc2oc(-c3ccc(O)c(O)c3)cc(=O)c2c1O	1
COc1ccc(Oc2ccc(N/C=C3\CCCC3=O)cc2)cc1	12
CC(Sc1nc2c(cc1C#N)CCCCC2)C(=O)O (stereo unspecified)	10
O=C(N/N=C/c1cn(-c2ccccc2)nc1-c1cccnc1)c1ccccc1	6
O=C(C1CC(=O)N(c2ccc3c(c2)OCCO3)C1)N1CCN(c2ccccc2)CC1 (stereo unspecified)	11
CCN(CC)S(=O)(=O)c1cc(NC(=O)C2Cc3ccccc3C(=O)O2)ccc1C (stereo unspecified)	8
CCCSc1nnc(N)s1	4
COC(=O)c1ccc(OC)c(OC2CCCC2)c1	15
CC(C)C(=O)c1cn(CC(=O)NCc2ccc3c(c2)OCO3)c2ccccc12	4
N#C/C(=C(/O)CSc1ccccn1)c1nc2ccccc2s1	17
CC(C)(C)OC(=O)NCCCCCc1nnc(SCc2ccc(F)cc2)o1	14
COC(=O)CN1C(=S)N(Cc2ccccc2)C(=O)C1CC(=O)Nc1ccc(OC)cc1 (stereo unspecified)	9
Nc1n[nH]c(CCCO)n1	13
COc1ccc(C(=O)NNc2ccccc2)cc1	19
COc1ccccc1S(=O)(=O)c1ccccc1[N+](=O)[O-]	10
O=c1[nH]cnc2scc(-c3ccc(Br)cc3)c12	17
CC(C)c1ccc(CNC(=O)C(=O)NCCCn2ccnc2)cc1	23
CCOc1ccc(C2C(C(=O)c3cccs3)=C(O)C(=O)N2Cc2cccnc2)cc1 (stereo unspecified)	12
O=C(CCl)Nc1ccc(Sc2ccc(NC(=O)CCl)cc2)cc1	13
CCOC(=O)c1cc(CC)sc1NC(=O)c1cccc(N2C(=O)CCC2=O)c1	10
O=c1c2[nH]c3ccc(Br)cc3c2ncn1Cc1ccncc1	0
COc1ccc(/C=N/Nc2nc(-c3cccnc3)nc3ccccc23)c(OC)c1	18
C=CCOc1ccc(Br)cc1CNCC	7
CCOc1ccc(/C(O)=C/C(=O)C(=O)Nc2ccc(S(=O)(=O)NC(C)=O)cc2)cc1	10
CC(NC(=O)C1CCN(S(=O)(=O)N2CCC3(CC2)OCCO3)CC1)c1ccccc1 (stereo unspecified)	22
C[C@@H]1CN(Cc2cn(C)nc2-c2cccc(Cl)c2)C[C@H](C)O1	12
O=C(O)C(Cc1ccccc1)N1C(=O)/C(=C/C=C/c2ccco2)SC1=S (stereo unspecified)	4
COc1ccc(C2CC(=O)N(C)c3ccccc3S2)cc1OC (stereo unspecified)	10
O=C(Oc1ccc[nH]c1=O)c1cc([N+](=O)[O-])cc([N+](=O)[O-])c1	12
CCCNC(=O)c1ccc(SCC(=O)N(CC)CC)c([N+](=O)[O-])c1	10
CNC(=S)N1CCc2cc(OC)c(OC)cc2C1COc1ccc(OC)cc1 (stereo unspecified)	-2
CCOc1cc(-n2ncc(C#N)c2N)nc(SC)n1	3
O=C(NCC1CCCCN1)c1cc(OCC(F)(F)F)ccc1OCC(F)(F)F (stereo unspecified)	11
OCCCNC(=S)Nc1ccc(Nc2ccccc2)cc1	9
CC(=O)Nc1ccc(S(=O)(=O)NNC(=O)COc2cccc3ccccc23)cc1	10
CC(=O)NC1=NN(C(C)=O)C(C)(c2cccc([N+](=O)[O-])c2)S1 (stereo unspecified)	-1
Cc1ccc(C)c(NC(=S)/C(=C(\[O-])c2ccc(Cl)s2)[n+]2ccccc2)c1	-9
COc1cc(/C=N/N=C(N)N)ccc1OCc1ccccc1Cl	2
CCOc1ccc(S(=O)(=O)Oc2ccc3ccccc3c2)cc1	14
CCCn1c(N)c(Sc2ccc(C)cc2)c(=O)n(CCC)c1=O	8
CC(C)Cn1c(-c2ccncc2)n[nH]c1=S	1
CNCCCCOc1ccccc1-c1ccccc1	14
Cc1sc2ncn(CC(=O)NCC3COc4ccccc4O3)c(=O)c2c1S(=O)(=O)N1CCCCC1 (stereo unspecified)	16
O=c1cc(-c2c(O)c3ccccc3n(Cc3ccccc3)c2=O)[nH][nH]1	11
Cc1ccnc(NC(=O)c2ccc(S(=O)(=O)c3ccccc3)cc2)c1	12
NC(=S)N/N=C/c1ccc(-c2ccccc2)o1	23

(listing goes on)
SMILES	Calb biofilm kill
O=C(CNC(=S)N(Cc1ccccc1)Cc1ccccc1F)NCCc1ccc(Cl)cc1	2
Nc1ccccc1SC1CC(=O)N(Cc2ccccc2)C1=O (stereo unspecified)	14
CC(C)c1ccc(NC(=O)CSc2nc(-c3ccccc3F)nc3nc[nH]c23)cc1	15
CCC(=O)Nc1ccc(NC(=O)CSc2nnnn2-c2ccc3c(c2)OCCO3)cc1	13
CCOC(=O)CSc1nc(C(C)C)nc2sc(C)c(C)c12	6
COCCCNC(=O)C(=O)NC1CCCCC1C (stereo unspecified)	12

Screens as filed in PubChem.
